gsp agonist – qHTS for Agonist of gsp, the Etiologic Mutation Responsible for Fibrous Dysplasia/McCune-Albright Syndrome: qHTS | gsp mutant cells, cAMP HTRF, 30 min; control for the full effect not named in the record | Potency, µM (top dose mostly 76.9 µM), inactives show at the highest dose activation (cAMP increase), usual class: activators | 0.13% of 340,000 active; active = well fitted activation curve with a large enough effect; inconclusive = small, poorly fitted or top-dose-only effect, or another doubt; inactive = no such curve, though single readings can be large or run the other way; cell line not stated here;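 note: phosphodiesterase inhibitor Ro 20-1724 added with compounds to block cAMP breakdown; potency is the fitted concentration of half-maximal effect; nearly all actives have a fitted effect of over 60% in size; about a fifth of the inactives were tested at one dose only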
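Cells stably selected in G418 were plated at 2000/well, grown 16-24 hr, then given compounds in DMSO with the PDE inhibitor […] (300 uM solution added) for 30 min at 37C; cAMP was read by HTRF.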
TRPML1 inh – qHTS for Inhibitors of the Human Mucolipin Transient Receptor Potential 1 (TRPML1); Mucolipin-1 (Homo sapiens), Q9GZU1; TRPML1-inducible cells, Ca2+ dye fluorescence, FDSS; active compounds read low; inhibition of EC80 agonist-evoked calcium signal; activity change, negative = inhibition, % (test concentration not listed); 0.02% of 390,000 active; AID 624415, 2012; in the data active means activity change below about -50%; inconclusive means about -30% to -50%; inactive means above about -30%;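 note: stimulus is agonist 54-4 at its EC80 concentration; % is set by controls: 0 for no effect and ±100 for the full control effect; compound concentration not given in the record; the text of the record puts the active cut at -80%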
Target sequence (Q9GZU1 whole entry, looked up): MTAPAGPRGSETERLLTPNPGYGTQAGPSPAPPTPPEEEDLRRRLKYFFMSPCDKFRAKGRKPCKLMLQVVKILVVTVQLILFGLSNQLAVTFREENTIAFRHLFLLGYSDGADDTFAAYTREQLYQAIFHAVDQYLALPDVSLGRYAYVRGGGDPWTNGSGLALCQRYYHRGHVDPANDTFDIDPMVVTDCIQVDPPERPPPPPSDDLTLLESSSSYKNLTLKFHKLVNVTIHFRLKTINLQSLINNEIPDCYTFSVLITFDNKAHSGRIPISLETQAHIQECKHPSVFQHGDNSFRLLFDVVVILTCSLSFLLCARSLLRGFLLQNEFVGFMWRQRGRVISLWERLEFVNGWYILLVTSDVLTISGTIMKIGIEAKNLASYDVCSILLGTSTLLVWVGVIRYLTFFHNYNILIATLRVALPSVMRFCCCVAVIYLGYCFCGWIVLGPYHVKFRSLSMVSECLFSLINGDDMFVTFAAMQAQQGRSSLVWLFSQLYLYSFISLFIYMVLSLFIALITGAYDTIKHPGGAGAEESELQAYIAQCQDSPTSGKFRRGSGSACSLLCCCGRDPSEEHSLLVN
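TRPML1-DL cells, Tet-induced overnight (~16 h, 37 °C) at 1,500 cells/well, were loaded with Ca8 no-wash dye plus quencher for 45-90 min at room temperature. Compounds were pinned during FDSS kinetic reading; agonist 54-4 at EC80 (4 uM final) then added.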
Menin MLL FP FL – qHTS Assay for Inhibitors Targeting the Menin-MLL Interaction in MLL Related Leukemias: Competition With Fluorescein Labeled MLL-derived Peptide. Fluorescence polarization, fluorescein-MLL peptide displacement from menin. FP activity change, % at 61.4 µM. 290,000 tested, under 10 active. AID 1766, 2009; inconclusive = falling polarisation curve, or a change in total fluorescence; inactive = total fluorescence flat and polarisation flat or rising; no compound was filed as active; the % refers to the polarisation; negative = inhibition;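 note: % of control where 0% means no effect; inhibitors lower the polarisation; unlabelled MLL peptide was the positive control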
ClpP mod – qHTS Assay for Activators of ClpP; ATP-dependent Clp protease proteolytic subunit (Bacillus subtilis (strain 168)), P80244; purified B. subtilis ClpP, FRET peptide cleavage, 20 min; Potency, µM (top dose mostly 57.5 µM), for inactives: at the highest dose activity change, negative = active; 1.9% of 340,000 active; AID 651965, 2013; active = well fitted falling curve with a large enough effect; inconclusive = small, poorly fitted or top-dose-only effect; inactive = no such curve, though single readings can be large or run the other way; note: potency is the fitted concentration of half-maximal effect; the source files actives as falling curves though it sought activators and does not explain the sign; nearly all actives have a fitted effect of over 65% in size; many hits overshoot -100%
Target sequence (P80244 whole entry, looked up): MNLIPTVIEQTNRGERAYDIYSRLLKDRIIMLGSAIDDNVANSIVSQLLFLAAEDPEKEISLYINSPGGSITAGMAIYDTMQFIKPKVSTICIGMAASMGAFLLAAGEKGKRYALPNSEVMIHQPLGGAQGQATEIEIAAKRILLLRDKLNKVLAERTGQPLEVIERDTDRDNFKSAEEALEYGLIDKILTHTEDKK
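FRET quenching reversal measured ClpP activation: 10 microg/mL B. subtilis ClpP at pH 8 with the FRET-FV decapeptide, read at 430 nm after 320 nm excitation. The 20-min minus 0-min signal was scaled between DMSO/no-enzyme wells and ADEP (5.8 microM final).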
gsp antagonist – qHTS for Antagonists of gsp, the Etiologic Mutation Responsible for Fibrous Dysplasia/McCune-Albright Syndrome: qHTS | gsp-mutant cells, cAMP HTRF, 30 min; control for the full effect not named in the record | Potency, µM (highest dose often 76.9 µM), without a hit: at the top dose activity change, negative = inhibition, usual class: inhibitors | 0.4% of 340,000 active | AID 624288, 2012; active = falling curve of any shape with a large fitted effect; inconclusive = falling curve, mostly with a smaller effect; inactive = flat or rising curve; cell line not stated here;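 note: intracellular cAMP measured with PDE inhibitor Ro 20-1724 present during compound exposure; potency is the fitted concentration of half-maximal effect; % is set by controls: 0 for no effect and ±100 for the full control effect; nearly all actives have a fitted effect of over 65% in size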
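Cells, 2000/well, grown 16–24 h in DMEM 10% FBS with 0.5 mg/ml G418, then compounds plus […] (300 uM addition stock), 30 min at 37C. cAMP read by HTRF (cAMP-d2 and anti-cAMP antibody-K in lysis buffer) after 30 min RT.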
TRPML1 agonist – qHTS for Agonists of the Human Mucolipin Transient Receptor Potential 1 (TRPML1); Mucolipin-1 (Homo sapiens), Q9GZU1; AID 624414, 2012; TRPML1-expressing cells, Ca2+ dye fluorescence, FDSS; host cell line not named in the record; reference of the full effect not given here; activation, % (concentration not given with the values); 0.12% of 410,000 active; in the data active = activation above about 50%; inconclusive = about 30% to 50%; inactive = below about 30%; note: 0% is about no effect; the text of the record puts the active cut at 80%
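Agonist activity was taken from a 110 s kinetic Ca2+ dye read on the FDSS after pinning compounds onto TRPML1-DL cells. The cells were seeded at 1,500/well with Tet inducer, incubated about 16 h, then dye-loaded at room temperature.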
The depositor's hits bear a star; ? = inconclusive; / = not tested or not shown; & = joins results of further samples; [ ] = remark or other dose.

SMILES	gsp agonist	TRPML1 inh	Menin MLL FP FL	ClpP mod	gsp antagonist	TRPML1 agonist
CCC(C)N(C(=O)CSc1nnc2ccccn12)C1CCS(=O)(=O)C1 (centres undefined)	7%[15.4 µM]	-4	/	/	4%	0.2
CCOC(=O)C(C)N1CC(=O)N(c2ccccc2)C1=O (centres undefined)	?	-16	/	0.2%	9%	4.1
Cc1nc(CN2CCN(C(=O)NC3(c4ccccc4)CC3)CC2)cs1	9%	8	2.6	-16%	12%	-0.5
CCN(C1CCCCC1)S(=O)(=O)c1ccc(S(=O)(=O)N(CC(=O)Nc2ccccc2)C2CC2)cc1	-20%	4	-4.1	-0.5%	-24%	0.0
COc1ccc(C2Nc3ccccc3C(=O)N2O)cc1CN1CCOCC1 (centres undefined)	-4%	-23	2.4	-7.2%	6%	-0.4
O=C(O)CN1C(=O)CSc2ccccc21	-14%	8	0.4	1.1%	12%	-0.3
CCn1c(CNC(=O)C2CCCCC2)cc2cc(C)ccc21	?	-6	-2.2	/	11%	0.5
O=C(C1CCCN(S(=O)(=O)c2cccc3nsnc23)C1)N1CCN(c2ccccc2F)CC1 (centres undefined)	/	6	/	-0.3%	/	-0.6
C=Cn1ccnc1P(=S)(c1ccc2c(c1)c1ccccc1n2CC)c1nccn1C=C	-37%[inhibitor]	3	3.1	-23%	-5%	2.2
COc1c(Br)cc(/C=N/n2c(-c3ccccc3)n[nH]c2=S)c(O)c1Br	5%	-5	4.6	-23%	-8%	2.6
O=C(CN1CCN(S(=O)(=O)c2cccs2)CC1)N1CCCCC1	2%[15.4 µM]	-2	/	/	12%	-0.6
Cc1ccc(C)c(OCCC(=O)NNC(=O)Cn2nc(C)cc2C)c1	0%	-1	/	0.4%	5%	0.3
O=C(NC1CC(=O)N(c2cccc(F)c2)C1)C1CCCCC1 (centres undefined)	/	22	/	0.1%	/	-0.6
C/C(=N\NC(=O)c1cc(O)ccc1O)c1cccc(NC(=O)c2cccc(Cl)c2)c1	-15%	14	/	4.3%	-7%	-0.5
Cc1cc(C)n(-c2ccc(C(=O)NC3CCCCC3)cc2)n1	2%[15.4 µM]	26	0.6	-2.6%	-3%	0.4
CC1(C)Cc2cccc(OCC(=O)Nc3nccs3)c2O1	-5%	7	1.7	-1.7%	-17%	2.8
COc1cc(OC)cc(C(=O)Nc2cccc3cccnc23)c1	1%[15.4 µM]	-16	-1.5	0.5%	?	-0.4
CCOC(=O)C1=C(C)N=c2s/c(=C\c3ccc(OCC(=O)O)cc3)c(=O)n2C1c1ccc(OC(C)C)cc1 (centres undefined)	3%	1	14	-4.1%	-36%	1.1
CC(C)Cn1c(SCC(=O)NC2CC2)nc2ccccc21	6%	11	/	-0.9%	/	-0.5
CN(Cc1cccc(Cl)c1Cl)C(=O)c1cc(S(=O)(=O)N2CCOCC2)ccc1F	?	5	/	/	14%	-0.1
CCN(C(=O)CN1CCCc2cc(C)ccc21)c1c(N)n(Cc2ccccc2)c(=O)[nH]c1=O	8%[15.4 µM]	-9	/	/	2%	1.7
COc1ccc(-c2c(-c3cc(OC)cc(OC)c3)n(C)c3ccc(-c4cnc(N)nc4)cc23)cc1	22%	16	/	3.9%	-1%	0.1
Cc1ccc(C)c(-n2c(Cc3cc(=O)[nH]c(=O)[nH]3)nnc2SCC(=O)NCc2ccco2)c1	-3%	18	/	-1.4%	11%	2.0
COc1cc(NC(=S)N2CCN(Cc3ccccc3)CC2)cc(OC)c1	-16%	2	3.3	1.1%	-3%	0.3
Cc1cccc(Cc2c(C)nc3nc(SCc4ccccc4F)nn3c2C)c1	/	5	/	?	/	0.2
CCc1cc(C=C(Cl)Cl)oc(=O)c1C	-47%[inhibitor]	13	2.1	0.8%	-1%	0.7
CC(=O)CC(=O)Nc1ccn(-c2ccccc2)n1	9%	9	3.8	-2.3%	5%	1.5
O=C(c1ccc(S(=O)(=O)N2CCCCC2)cc1)N1CCN(c2ccccc2F)CC1	24%[15.4 µM]	-9	4.0	-1.1%	4%	1.6
COc1ccc(-c2cc(C(=O)N3CCOCC3)no2)cc1	14%[15.4 µM]	-5	8.2	/	6%	-0.6
COc1cccc(NC(=O)C2CCC(CNS(=O)(=O)c3ccc4c(c3)CC(C)N4C(C)=O)CC2)c1 (centres undefined)	?	5&-6	-4.2	-4.1%&-0.8%	-30%	0.1&1.3
CC1CCN(C(=O)C(=O)c2cn(CC(=O)N3CCCC3)c3ccccc23)CC1	3%	-12	/	0.3%	-15%	-0.3
COc1cc(C(=O)OCC(=O)N(CC(C)C)C2CCS(=O)(=O)C2)cc(OC)c1C (centres undefined)	?	-2	/	-12%	3%	0.5
COc1ccc(N2CCN(C(=O)c3cc(S(=O)(=O)N4CCC(C)CC4)cn3C)CC2)cc1	/	-4	/	0.2%	/	0.9
CCCSc1ccc([C@H]2N[C@@](C)(C(=O)OC)[C@H]3C(=O)N(C)C(=O)[C@@H]23)cc1	23%	-2	/	-4.0%	2%	-1.0
COc1cc(C(=O)Oc2cccc(C)c2)cc(OC)c1OC	-12%	-5	1.0	-11%	1%	0.3
Cc1ccc(NS(=O)(=O)c2cc3c4c(cccc4c2)C(=O)NC3=O)cc1C	-1%[15.4 µM]	31	0.3	/	-9%	1.9
CN(Cc1ccccc1Cl)C(=O)CCNC(=O)c1ccco1	-1%	8	/	-2.0%	4%	0.3
COc1ccc(S(=O)(=O)NCC(=O)N(CC(=O)NCC2CCCO2)Cc2ccc(F)cc2)cc1 (centres undefined)	-2%	16	-0.9	/	9%	1.9
Cc1ccc(NC(=O)N2CCC(C(=O)Nc3ccc(C)cc3C)CC2)cc1	-3%	-2	2.2	0.8%	13%	0.9
O=C(c1cccnc1)N1CCN(C(=O)c2ccco2)CC1	4%	4	1.8	-1.3%	4%	-0.2

At a glance, 3 of the compounds above.
SMILES	gsp agonist	TRPML1 inh	Menin MLL FP FL	ClpP mod	gsp antagonist	TRPML1 agonist
COc1ccc(S(=O)(=O)NCC(=O)N(CC(=O)NCC2CCCO2)Cc2ccc(F)cc2)cc1 (centres undefined)	-2%	16	-0.9	/	9%	1.9
Cc1ccc(NC(=O)N2CCC(C(=O)Nc3ccc(C)cc3C)CC2)cc1	-3%	-2	2.2	0.8%	13%	0.9
O=C(c1cccnc1)N1CCN(C(=O)c2ccco2)CC1	4%	4	1.8	-1.3%	4%	-0.2

Continuation:
SMILES	gsp agonist	TRPML1 inh	Menin MLL FP FL	ClpP mod	gsp antagonist	TRPML1 agonist
Cc1cc(C(=O)NCc2cc(C)n(C)n2)sc1-c1ccccc1	-29%	15	5.9	25µM*	-26%	1.3
O=C(O)C(Cc1ccccc1)N1C(=O)c2cccc3cccc(c23)C1=O (centres undefined)	3%[15.4 µM]	-1	-4.8	/	-1%	0.9
O=C(Nc1ccon1)Nc1cc(Cl)ccc1Cl	24%	4	-0.4	0.3%	0%	0.5
O=C1CC(NS(=O)(=O)c2ccccc2F)CN1c1ccc2c(c1)OCCO2 (centres undefined)	10%	9	/	-1.8%	6%	0.3
CC(=O)C1(C)CCC2C3C=C(C)C4=CC(=O)CCC4(C)C3CCC21C (centres undefined)	19%	72	/	-2.0%	?	3.7
CCOC(=O)C1(Cc2ccccc2C)CCCN(C(=O)c2ccc(COC)o2)C1 (centres undefined)	-73%[inhibitor]	-10	/	-7.0%	-22%	0.0
CN(CC1CCCN(CCc2ccc(Cl)cc2)C1)C(=O)c1ccco1 (centres undefined)	-11%[15.4 µM]	-7	/	-15%	13%	-0.8
O=C(NCc1ccc(F)cc1)c1nnc(Cc2cccc(F)c2)o1	/	-3	/	-2.7%	/	0.5
O=C(COc1ccccc1)Nc1ccc(S(=O)(=O)N(Cc2ccccc2)c2ccccc2)cc1	/	9	/	-0.6%	/	-0.5
O=C(CN1C(=O)CCC1=O)Nc1ccc2c3c(cccc13)CC2	12%	-23	0.2	-5.3%	-1%	0.7
O=C(c1cc(COc2cccc3cnccc23)on1)N1CCC(c2ccccc2Cl)C1 (centres undefined)	-9%	41	/	?	28µM*	-0.1
Cc1cc2oc(C(=O)N(Cc3ccc(N(C)C)cc3)CC3CCCO3)c(C)c2cc1Cl (centres undefined)	/	-14	/	-0.1%	/	1.1
COc1cc(/C=C2\CCC/C(=C\c3ccc(O)c(OC)c3)C2=O)ccc1O	-26%	11	?	-0.5%	?	0.7&-0.6
Cc1cccc(C)c1NS(=O)(=O)c1ccc(NC(=O)c2ccc(Cl)c([N+](=O)[O-])c2)cc1	?	-7	7.9	-1.3%	25µM*	-0.2
Cc1cccc2cc(C#N)c(NCCNC(=O)COc3ccccc3)nc12	-11%	3	-7.3	4.0%	-13%	3.0
CCOC(=O)/C=C1/SCC(=O)N1CC(=O)Nc1cccc(F)c1	-26%	4	/	-1.2%	-2%	0.8
COc1ccc(NC(=O)CN(C)C(=O)c2cc(C)on2)cc1	-26%[15.4 µM]	-15	/	/	-11%	1.3
CCOc1ccc(S(=O)(=O)NCCC(=O)Nc2cccc(C(=O)OC)c2)cc1	9%[15.4 µM]	-8	0.5	-9.6%	3%	-0.7
CN(C(=O)CSc1nc2ncccc2o1)c1ccc(F)cc1	/	43	/	-1.3%	/	0.3
O=C(c1ccc(CS(=O)(=O)c2ccc(Br)cc2)o1)N1CCCC1	-47%[inhibitor]	-14	-2.0	1.4%	-1%	0.2
COc1ccc(CN2CCN(C(=O)C3CCC(CNS(=O)(=O)c4ccc(C)cc4)CC3)CC2)c(OC)c1OC (centres undefined)	?	-8	-5.5	/	?	0.2
CC(C)(C)NC(=O)NCc1ccco1	?	28	0.9	/	9%	-0.8
COc1ccc(CNC(=O)C(OC(=O)c2ccco2)c2ccccc2)cc1 (centres undefined)	7%[15.4 µM]	-14	/	-0.4%	-16%	-1.7
CC(C)Oc1ccc(C(CC(=O)O)n2cnnn2)cc1 (centres undefined)	12%[15.4 µM]	-8	-0.1	/	8%	-0.9
COc1cc(NC(=O)CSc2c3c(nc4ccccc24)CCC3)cc(OC)c1OC	-40%[inhibitor]	9&4	6.7	0.1%&-1.6%	-8%	1.3&2.7
CC(C)(C)C(=O)Nc1ccc(-c2cnco2)cc1	23%[15.4 µM]	-6	1.7	0.4%	-11%	-0.6
NC(=O)C1(N2CCCCC2)CCN(c2nc(-c3ccccc3)cs2)CC1	-17%	-2	0.7	-2.2%	-10%	-0.4
